Screening data (PubChem)
PKD1 kinase inh – inhibitors of human PKD1 kinase; actives 0.056% (n = 200,000); PKD1 kinase fluorescence polarization assay; inhibition, %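 (about 10 µM by stock and volumes)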; AID 797;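 active = inhibition of 50% or more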;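 note: controls were vehicle for no effect and a reference inhibitor for full effect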
Target sequence (Q15139 whole entry, looked up): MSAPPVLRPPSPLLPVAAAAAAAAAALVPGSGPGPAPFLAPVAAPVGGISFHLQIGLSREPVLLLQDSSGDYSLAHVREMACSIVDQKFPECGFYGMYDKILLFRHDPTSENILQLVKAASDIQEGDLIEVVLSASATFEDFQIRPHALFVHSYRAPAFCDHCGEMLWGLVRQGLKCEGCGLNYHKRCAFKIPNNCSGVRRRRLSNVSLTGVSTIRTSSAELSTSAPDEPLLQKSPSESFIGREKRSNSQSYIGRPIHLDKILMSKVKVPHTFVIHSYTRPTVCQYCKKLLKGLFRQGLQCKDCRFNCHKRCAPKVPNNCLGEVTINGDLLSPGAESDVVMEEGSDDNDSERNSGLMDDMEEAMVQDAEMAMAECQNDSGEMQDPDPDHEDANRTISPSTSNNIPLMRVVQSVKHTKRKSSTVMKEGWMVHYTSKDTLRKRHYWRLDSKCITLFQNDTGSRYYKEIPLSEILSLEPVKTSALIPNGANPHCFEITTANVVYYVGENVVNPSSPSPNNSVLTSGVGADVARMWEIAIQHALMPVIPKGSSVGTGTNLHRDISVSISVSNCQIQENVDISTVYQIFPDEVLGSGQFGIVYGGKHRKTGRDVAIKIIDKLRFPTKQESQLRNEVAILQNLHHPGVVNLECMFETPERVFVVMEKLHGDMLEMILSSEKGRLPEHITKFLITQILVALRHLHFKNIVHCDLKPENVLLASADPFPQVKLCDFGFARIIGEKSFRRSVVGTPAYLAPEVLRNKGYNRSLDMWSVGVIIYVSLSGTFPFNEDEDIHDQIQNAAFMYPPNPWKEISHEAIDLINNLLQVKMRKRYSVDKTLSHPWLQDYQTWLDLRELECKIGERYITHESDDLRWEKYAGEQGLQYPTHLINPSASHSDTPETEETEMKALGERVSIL
HSV replic up – increases HSV replication in cells; actives 0.005% (n = 220,000); maximum fold increase; AID 1956; HSV replication augmentation in cells, fold increase;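 active = peak rise of 1.5-fold or more in the series; tested in PC3 cells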;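 note: first round at 10 µM; read as green reporter fluorescence; hits show the peak of a series up to 25 µM; 1 = signal of infected wells without compound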
RGS16-Gao HTS – modulates binding between human RGS16 and Galphao | O15492+P09471 | bead-based flow cytometry RGS16-Galphao binding, fluorescence; actives lie on both sides | binding response (% of control), % at 10 µM | actives 0.38% (n = 220,000);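 active = below 25% or above 175%, edge rows of some plates excepted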;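 note: Galphao activated by GDP with aluminum fluoride before binding; 100% = wells without compound and 0% = beads without RGS; some results beyond the cut were filed as inactive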
GALR2 ag – GALR2 (human) receptor agonism | O43603 | GALR2-expressing cells, agonist activation read-out | activation, %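 (tested at 5 µM)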 | actives 0.48% (n = 140,000) | AID 803;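 active = above mean plus 3 SD of all compounds, about 5% in these data, not always enough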;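 note: 0% = vehicle buffer wells and 100% = reference agonist at full effect; tested in CHO reporter cells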
Insulin prom inh – TRM-6 insulin promoter activity inhibition; TRM-6 cells (human fetal islet line), insulin promoter-eGFP reporter, imaging; reporter expression induced with tamoxifen; inhibition, % at 2 µM; actives 0.9% (n = 130,000); AID 1273;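 active = inhibition above the mean plus 3 SD, with well images judged a real hit on visual review, cut at about 60% in these data, passing the limit was not always enough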
Insulin prom inh cell count – second read-out of Insulin prom inh, no call of its own (marks repeat the call); normalized cell count, %; measured here: cell count, toxicity; reference of the scale not given here;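 cells exposed to compound for 48 h; stained nuclei by imaging scaled within each plate; lower means fewer cells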
HSV replic up primary fold – second read-out of HSV replic up, no call of its own (marks repeat the call); fold increase; compound at 10 µM; measured here: primary screen fold increase 10 uM; tested in PC3 cells;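 GFP signal in the first replicate; 1 = infected wells without compound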
Active calls of the source: *; i = inactive; . = not tested or not shown. The order is random; any-hit rate near 1.1%.

SMILES | PKD1 kinase inh | HSV replic up | HSV replic up primary fold | RGS16-Gao HTS | GALR2 ag | Insulin prom inh | Insulin prom inh cell count
Cc1ccc2c(c1)C(c1ccccc1)N(C(=O)c1ccc(Br)o1)CC(=O)N2 (centres undefined) | -4 | . | . | 101 | -1.8 | . | .
CCC(C)N1CCNCC1 (centres undefined) | -4 | i | 0.92 | 104 | . | . | .
Cc1c(C(=O)c2ccc(Cl)cc2Cl)cnc2cc3c(cc12)OCO3 | 3 | i | 0.91 | 108 | -0.7 | 22 | 132
CCOc1ccc(N2C(=O)CN(O)C=C3N=c4ccccc4=C32)cc1 | -3 | i | 1 | 96 | . | . | .
C=CCNC(=S)NCc1ccccc1OC | -3 | i | 1 | 101 | . | -58 | 142
CCn1c(=O)c2cc(C(=O)Nc3ccccc3OC)sc2c2ccccc21 | . | i | 1 | 86 | . | . | .
CCC(=O)Nc1cccc(C2=NOC3(C2)C[C@@H](C(N)=O)N(C(=O)c2cc([N+](=O)[O-])cc([N+](=O)[O-])c2)C3)c1 (some centres undefined) | . | i | 0.89 | 107 | . | . | .
O=C(COc1ccccc1[N+](=O)[O-])N/N=C/c1ccc(O)cc1 | 8 | i | 0.95 | 102 | -0.6 | 0 | 125
CC(=O)c1c(C)[nH]c(C(=O)N2CCCCCC2)c1C | -7 | i | 0.9 | 105 | -1.9 | 38 | 120
O=C(c1ccc2c(c1)OCCCO2)c1cccs1 | -1 | i | 0.9 | 103 | -0.5 | 3 | 87
Cc1ccc(/S(C)=N/S(=O)(=O)c2ccc(C)cc2)cc1 (centres undefined) | -7 | i | 0.89 | 129 | -0.2 | 42 | 117
O=C(NCc1ccco1)Nc1ccc2snnc2c1 | 1 | i | 0.91 | 105 | -1.1 | -36 | 116
COC(=O)C1=C(C)N(CCc2ccc(OC)cc2)C(=O)C1 | -15 | i | 1 | 92 | -0.8 | 43 | 171
NC(=O)CSc1nnc(-c2cccs2)n1Cc1ccco1 | . | i | 0.95 | 100 | . | . | .
CC(C)CCNC(=O)c1cnn2c(C(F)(F)F)cc(-c3ccco3)nc12 | 2 | i | 1 | 100 | -1.4 | . | .
CC(/C=C/c1ccco1)=N\NC(=O)C(O)c1ccccc1 (centres undefined) | 4 | i | 1.1 | 97 | -1.4 | 6 | 153
O=C(NC(=S)N1CCN(Cc2ccc3c(c2)OCO3)CC1)c1cccc(Br)c1 | -7 | i | 0.95 | 111 | -1.0 | -10 | 94
N/C(=N\OC(=O)c1cc([N+](=O)[O-])ccc1Cl)c1cccnc1 | . | i | 0.75 | 97 | . | . | .
CCN1CCN(C(=S)c2ccc(-c3ccccc3)cc2)CC1 | -4 | i | 0.92 | 98 | . | . | .
CC(C)C(C)(C#N)NC(=O)CSc1nc(C2CCCCC2)n(-c2ccccc2)n1 (centres undefined) | -7 | i | 0.97 | 101 | -0.1 | 21 | 144
COc1ccccc1NS(=O)(=O)c1ccc(N/N=C/c2ccccc2OCC(=O)O)c([N+](=O)[O-])c1 | -1 | i | 0.82 | 101 | . | -6 | 62
N/C(CN1CCCC1=O)=N\OC(=O)c1ccc(Cl)c(Cl)c1 | -2 | i | 1 | 110 | -0.5 | 0 | 104
COc1ccc(NC(=O)C2CC2)cc1NS(=O)(=O)c1ccc(F)cc1 | 3 | i | 0.83 | 104 | -1.9 | . | .
CC(C)CCNC(=O)CN(Cc1cccs1)C(=O)CCC(=O)Nc1nccs1 | 4 | i | 0.95 | 101 | -2.0 | -38 | 142
Cc1ccc(-n2nnnc2C(=Cc2ccc(N(C)C)cc2)c2nnnn2-c2ccc(C)cc2)cc1 | -7 | . | . | 11* | -1.6 | . | .
Brc1ccccc1-c1nnc(SCc2nc3ccccc3s2)o1 | -7 | i | 1.1 | 87 | -1.4 | 0 | 67
CCN(C(=O)C1CCCN1S(=O)(=O)c1cccc2nsnc12)c1ccccc1 (centres undefined) | . | i | 1.1 | 97 | . | . | .
O=C(c1ccccc1)N1CCN(C2CC(=O)N(CCc3ccccc3)C2=O)CC1 (centres undefined) | -16 | . | . | 101 | -2.4 | . | .
COC(=O)Cn1c(=NC(=O)CSCC(=O)NC2CCCCC2)sc2cc(OC)ccc21 | -3 | i | 1.1 | 104 | -1.8 | -36 | 114
CCCN1C(=O)c2ccccc2NC1c1cc(OC)c(OC)c(OC)c1 (centres undefined) | -4 | . | . | 100 | -2.3 | 51 | 122
Cc1cccc(N2C(=O)CC(c3ccc(F)cc3)C3=C2COC3=O)c1 (centres undefined) | -1 | i | 0.89 | 101 | . | -27 | 124
COc1ccc(/C=C2\SC(=S)NC2=O)cc1OS(=O)(=O)c1ccc(NC(C)=O)cc1 | -3 | i | 0.94 | 101 | . | -14 | 98
CCOC(=O)c1oc2ccccc2c1NC(=O)COC | -5 | i | 0.87 | 101 | -0.9 | -123 | 146
COC(=O)C1=C(C)N(c2ccc(OC)c(OC)c2)C(=O)/C1=C\c1cccs1 | -5 | i | 0.78 | 103 | . | . | .
CC(C)c1[nH]nc2c1C(c1cccc(OC(=O)N3CCOCC3)c1)C(C#N)=C(N)O2 (centres undefined) | 1 | i | 0.86 | 102 | -2.0 | 43 | 46
CCOC(=O)c1c(N2C(=O)Nc3ccccc3N2O)sc2c1CCCC2 | -2 | i | 0.78 | 108 | 1.6 | 19 | 152
Cc1ccc(OCCN2C(=O)C(=O)c3cccc(C)c32)cc1 | -4 | i | 0.94 | 109 | . | 42 | 108
CCC(C)[C@@H](N)C(=O)N/N=C/c1ccc2ncccc2c1 (some centres undefined) | 10 | i | 1 | 104 | 0.8 | -11 | 81
CCOc1ccc(CN2CCN(Cc3cccn3-c3nccs3)CC2CCO)cc1 (centres undefined) | . | i | 0.91 | 108 | . | . | .
COc1cc([N+](=O)[O-])ccc1NC(=O)COC(=O)c1ccc(NC(N)=O)cc1 | . | i | 0.84 | 95 | . | . | .
Cc1cccc2cc(C(c3nnnn3C3CCCC3)N3CCOCC3)c(=O)[nH]c12 (centres undefined) | 7 | i | 0.73 | 79 | -1.2 | 0 | 104
O=C(CSc1nnc(C2COc3ccccc3O2)o1)N1CCCCC1 (centres undefined) | -14 | i | 1.4 | 85 | -2.4 | . | .
O=C(Nc1nccs1)C1CC(=O)N(Cc2ccco2)C1 (centres undefined) | -3 | i | 1.1 | 95 | . | -17 | 82
c1ccc(-c2cc(N3CCOCC3)nc(-c3ccccc3)n2)cc1 | 0 | i | 0.99 | 102 | -1.2 | . | .
O=C1c2ccccc2-c2c1cccc2C(=O)N1CCCCCC1 | -13 | . | . | 45 | -0.3 | -8 | 63
CC(C)CN=C(NS(=O)(=O)c1ccccc1)C(Cl)(Cl)Cl | -6 | i | 0.5 | 92 | -0.9 | -7 | 97
Cc1cccc(-n2c(SCC(=O)Nc3nonc3C)nnc2-c2ccoc2C)c1 | -7 | i | 0.95 | 101 | -0.1 | -44 | 116
C[C@@H]1NC(=O)[C@H](CCCN=C(N)N)NC(=O)c2cc([N+](=O)[O-])cc(I)c2OCC[C@@H](C(=O)NC(CC(=O)O)C(N)=O)NC1=O (some centres undefined) | 5 | . | . | 109 | -0.7 | 9 | 118
COc1cc2c(cc1OC)C(C)N(C(=O)c1cccs1)CC2 (centres undefined) | 3 | i | 0.79 | 97 | . | . | .
CC(=O)c1cc(CN2CCCCC2)cc(OC(C)C)c1 | -15 | i | 0.89 | 105 | -0.6 | -181 | 107
C=CCSc1ncc(C#N)c(N)n1 | -2 | i | 0.82 | 111 | -0.8 | -8 | 166
CCNC(=O)c1sccc1-n1cccc1 | -4 | i | 1 | 106 | 1.3 | -65 | 74
CCOc1ccc(-c2nc(CCl)cs2)cc1OC | -5 | i | 1.1 | 97 | . | 42 | 77
Nc1nonc1-n1nnc(C(=O)N/N=C/C=C/c2ccccc2)c1CSC1=NCCS1 | . | i | 0.82 | 97 | . | . | .
Cc1ccc(-n2nc3c(c2NC(=O)c2ccc4c(c2)OCO4)CS(=O)C3)cc1 (centres undefined) | 2 | i | 1 | 100 | -1.8 | 60 | 115
Cc1c(C)c2cc(Cl)c(OCc3nn[nH]n3)cc2oc1=O | 2 | i | 0.89 | 105 | 0.5 | -12 | 104
CCc1sc(C(=O)NC2CCN(C)CC2)cc1Br | -8 | i | 0.82 | 116 | -1.7 | 50 | 128
CCCOc1cccc(-c2cc(C(=O)NNC(=S)NCC)c3ccccc3n2)c1 | -7 | . | . | 109 | -1.2 | 29 | 92
CCOc1ccc(C(=O)CCC(=O)O)cc1 | 2 | i | 1.1 | 103 | -1.0 | 18 | 150
FC(F)(F)c1cccc(Sc2cc(C(F)(F)F)nc(-c3ccccn3)n2)c1 | 0 | i | 0.91 | 98 | -0.6 | 14 | 26
(continued)
SMILES | PKD1 kinase inh | HSV replic up | HSV replic up primary fold | RGS16-Gao HTS | GALR2 ag | Insulin prom inh | Insulin prom inh cell count
COc1cc(C2C(C(=O)c3ccc(C)o3)=C(O)C(=O)N2c2cc(C)on2)ccc1O (centres undefined) | 5 | i | 1 | 103 | -0.5 | . | .
CCOC(=O)C(C(=O)OCC)[C@@H]1CS(=O)(=O)C[C@H]1C(C(=O)OCC)C(=O)OCC | -7 | i | 0.99 | 112 | -2.8 | -50 | 113
CCOc1ccccc1NC(=O)CSc1nnc(-c2cnccn2)n1CC | 6 | i | 0.87 | 90 | 0.6 | . | .
CC(=O)c1cc2c(cc1NC(=O)CN1CCN(c3cccc(C(F)(F)F)c3)CC1)OCO2 | 6 | i | 0.87 | 98 | -0.7 | 26 | 92
O=C(O)c1cc(C(F)(F)F)nc2c(C(F)(F)F)cccc12 | 9 | i | 1.2 | 123 | . | . | .
O=C(NCc1ccccc1)N(Cc1cc2cc3c(cc2[nH]c1=O)OCO3)CC1CCCO1 (centres undefined) | 5 | i | 1 | 295 | -1.1 | -7 | 84
COC(=O)c1ccncc1N | -7 | i | 0.87 | 99 | . | . | .
CCOC(=O)C1=C(O)/C(=C/N(C)C)N=C1C | -1 | i | 0.96 | 105 | -4.3 | -42 | 72
O=C(Nc1ccccc1Sc1ccccc1)c1ccc(F)cc1 | 3 | i | 1.1 | 107 | -0.1 | 10 | 78
CC(C)(C)c1nnc(N/N=C/c2ccccc2O)n(N)c1=O | -7 | i | 0.62 | 103 | -1.7 | 30 | 33
O=S(=O)(NCC(c1ccco1)N1CCN(c2ccccc2F)CC1)c1ccc(F)cc1 (centres undefined) | -8 | i | 1 | 113 | 0.5 | -38 | 50
O=C1CC(c2ccccc2)C(C(=O)O)N1 (centres undefined) | -20 | i | 0.79 | 103 | -0.5 | . | .
CCn1c(C(c2ccccc2)c2ccccc2)n[nH]c1=S | 1 | i | 1.1 | 90 | -1.4 | -59 | 91
COc1cc(NC(=O)c2ccccc2[N+](=O)[O-])c(C(=O)O)cc1OC | -1 | i | 1 | 100 | . | -17 | 81
O=S(=O)(c1ccc2c(c1)OCCO2)N1CCc2ccccc21 | 4 | i | 0.97 | 98 | . | 33 | 93
COc1cc(NC(=S)NCC2CCCO2)c(OC)cc1Cl (centres undefined) | -2 | i | 0.83 | 100 | . | -24 | 98

By substructure: those above containing two or more sulfur atoms
SMILES | PKD1 kinase inh | HSV replic up | HSV replic up primary fold | RGS16-Gao HTS | GALR2 ag | Insulin prom inh | Insulin prom inh cell count
Cc1ccc(/S(C)=N/S(=O)(=O)c2ccc(C)cc2)cc1 (centres undefined) | -7 | i | 0.89 | 129 | -0.2 | 42 | 117
NC(=O)CSc1nnc(-c2cccs2)n1Cc1ccco1 | . | i | 0.95 | 100 | . | . | .
CC(C)CCNC(=O)CN(Cc1cccs1)C(=O)CCC(=O)Nc1nccs1 | 4 | i | 0.95 | 101 | -2.0 | -38 | 142
Brc1ccccc1-c1nnc(SCc2nc3ccccc3s2)o1 | -7 | i | 1.1 | 87 | -1.4 | 0 | 67
CCN(C(=O)C1CCCN1S(=O)(=O)c1cccc2nsnc12)c1ccccc1 (centres undefined) | . | i | 1.1 | 97 | . | . | .
COC(=O)Cn1c(=NC(=O)CSCC(=O)NC2CCCCC2)sc2cc(OC)ccc21 | -3 | i | 1.1 | 104 | -1.8 | -36 | 114
COc1ccc(/C=C2\SC(=S)NC2=O)cc1OS(=O)(=O)c1ccc(NC(C)=O)cc1 | -3 | i | 0.94 | 101 | . | -14 | 98
Nc1nonc1-n1nnc(C(=O)N/N=C/C=C/c2ccccc2)c1CSC1=NCCS1 | . | i | 0.82 | 97 | . | . | .
